UUG fidelity – modulators of yeast start codon fidelity, primary screen, whole organism, S. cerevisiae, single point, plate reader; S. cerevisiae UUG-firefly luciferase reporter, luminescence/redox ratio; activity score, % at 18.7 µM; hit rate 0.13% among 350,000; AID 602363, 2012;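 active = replicate mean at a twofold rise or more, about +100% in these data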;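 note: firefly luciferase made from a UUG start codon reports start codon fidelity; reporter light over untreated wells divided by growth signal over untreated wells; some hits fall short of that in this replicate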
Env fusion inh – inhibitors of HIV-1 Env-driven cell-cell fusion, primary screen, HeLa-JRFL effector, CEM21 target cells, luciferase; inhibition, % at 12.3 µM; hit rate 1.1% among 360,000;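 active = mean replicate inhibition score of at least 50 and every replicate individually at or above 50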;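 note: 0% = plate neutral controls and 100% = maraviroc near 300 nM; one replicate is shown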
* marks the source's active call; other numbers are inactive results; [ ] = another dose, or the depositor's remark. These rows are one share of the data, so the mix of outcomes need not match the whole.

SMILES | UUG fidelity | Env fusion inh
COc1ccc(NC(=O)N(C)C[C@H]2Oc3ccc(NS(C)(=O)=O)cc3CC(=O)N([C@@H](C)CO)C[C@@H]2C)cc1 | -23 | 1[16.7 µM]
C[C@@H]1CCCCO[C@H](CN(C)S(=O)(=O)c2ccc(F)cc2)[C@H](C)CN([C@@H](C)CO)C(=O)c2cc(NC(=O)C3CCCCC3)ccc2O1 | 10 | -3[16.7 µM]
O=C(C[C@@H]1C=C[C@@H](NC(=O)c2ccccc2)[C@H](CO)O1)NCc1ccncn1 | 7 | 1[16.7 µM]
O=C(Cc1ccccn1)N[C@@H]1CC[C@H](CCNC(=O)c2cc(Cl)cc(Cl)c2)O[C@@H]1CO | 9 | 3[16.7 µM]
O=C(C[C@@H]1C[C@@H]2c3cc(NC(=O)NC4CCCCC4)ccc3O[C@@H]2[C@@H](CO)O1)NCc1cccnc1 | -14 | 11[16.7 µM]
C[C@@H]1CN([C@@H](C)CO)C(=O)Cc2cc(NS(=O)(=O)c3ccccc3)ccc2O[C@@H]1CN(C)C(=O)Nc1ccccc1 | 18 | -6[16.7 µM]
COc1cccc(-c2ccc3c(c2)O[C@@H](CN(C)C)[C@@H](C)CN([C@H](C)CO)S3(=O)=O)c1 | 15 | 0[16.7 µM]
Cc1ccc(S(=O)(=O)N[C@@H]2CC[C@H](CCn3cc(-c4ccccc4F)nn3)O[C@@H]2CO)cc1 | 6 | -1[16.7 µM]
C[C@@H]1CCCCO[C@@H](CN(C)S(C)(=O)=O)[C@H](C)CN([C@@H](C)CO)C(=O)c2cc(NS(=O)(=O)c3ccc(Cl)cc3)ccc2O1 | 16 | 15[16.7 µM]
CCCC#Cc1cnc2c(c1)C(=O)N([C@H](C)CO)C[C@@H](C)[C@@H](CN(C)C(=O)C1CCCCC1)O2 | 52 | -10[16.7 µM]
C[C@H](O)C#Cc1ccc2c(c1)O[C@@H](CN(C)C)[C@H](C)CN([C@H](C)CO)S2(=O)=O | -5 | -10[16.7 µM]
C[C@H](CO)N1C[C@H](C)[C@H](CN(C)C(=O)c2ccccn2)Oc2ncc(-c3ccc(F)cc3)cc2C1=O | -4 | 2[16.7 µM]
Cc1noc(C)c1NC(=O)Nc1ccc2c(c1)C(=O)N([C@@H](C)CO)C[C@@H](C)[C@H](CN(C)Cc1ccc3c(c1)OCO3)OCCCC[C@H](C)O2 | 4 | 2[16.7 µM]
C[C@H]1CN([C@@H](C)CO)C(=O)c2cc(NC(=O)Nc3ccc4c(c3)OCO4)ccc2O[C@H]1CN(C)S(=O)(=O)c1ccc(F)cc1 | 0 | 69*[16.7 µM]
C[C@@H]1CCCCO[C@@H](CN(C)S(C)(=O)=O)[C@H](C)CN([C@@H](C)CO)C(=O)c2cc(NS(C)(=O)=O)ccc2O1 | -1 | 14[16.7 µM]

Single records, as listed above. Order of values: UUG fidelity	Env fusion inh
Profile of C[C@@H]1CCCCO[C@H](CN(C)S(=O)(=O)c2ccc(F)cc2)[C@H](C)CN([C@@H](C)CO)C(=O)c2cc(NC(=O)C3CCCCC3)ccc2O1 = 10	-3[16.7 µM]
Profile of CCCC#Cc1cnc2c(c1)C(=O)N([C@H](C)CO)C[C@@H](C)[C@@H](CN(C)C(=O)C1CCCCC1)O2 = 52	-10[16.7 µM]
Profile of Cc1noc(C)c1NC(=O)Nc1ccc2c(c1)C(=O)N([C@@H](C)CO)C[C@@H](C)[C@H](CN(C)Cc1ccc3c(c1)OCO3)OCCCC[C@H](C)O2 = 4	2[16.7 µM]

Fetched one by one from the list above, 3 records:
SMILES | UUG fidelity | Env fusion inh
C[C@H](O)C#Cc1ccc2c(c1)O[C@@H](CN(C)C)[C@H](C)CN([C@H](C)CO)S2(=O)=O | -5 | -10[16.7 µM]
C[C@@H]1CCCCO[C@@H](CN(C)S(C)(=O)=O)[C@H](C)CN([C@@H](C)CO)C(=O)c2cc(NS(=O)(=O)c3ccc(Cl)cc3)ccc2O1 | 16 | 15[16.7 µM]
O=C(Cc1ccccn1)N[C@@H]1CC[C@H](CCNC(=O)c2cc(Cl)cc(Cl)c2)O[C@@H]1CO | 9 | 3[16.7 µM]

Next results:
SMILES | UUG fidelity | Env fusion inh
C[C@@H]1CN([C@@H](C)CO)C(=O)c2cccc(NC(=O)NC3CCCCC3)c2O[C@H]1CN(C)CC1CC1 | -22 | -1[16.7 µM]
CNC[C@@H]1Oc2ncc(-c3ccc(C)cc3)cc2C(=O)N([C@H](C)CO)C[C@@H]1C | -5 | -99[16.7 µM]
O=C(CCN1CCCCC1)NCC[C@@H]1CC[C@H](NC(=O)C2CC2)[C@@H](CO)O1 | -3 | -14[16.7 µM]
C[C@@H]1CCCCO[C@H](CN(C)C(=O)Cc2ccccc2)[C@H](C)CN([C@H](C)CO)C(=O)c2cc(NS(=O)(=O)c3ccc(Cl)cc3)ccc2O1 | -5 | -5[16.7 µM]
C[C@H](CO)N1C[C@H](C)[C@H](CN(C)Cc2ccc(C(F)(F)F)cc2)OCCCC[C@H](C)Oc2ccc(NS(=O)(=O)c3ccc(Cl)cc3)cc2C1=O | 4 | 18[16.7 µM]
C[C@@H]1CN([C@H](C)CO)C(=O)c2cc(NC(=O)Nc3ccc4c(c3)OCO4)ccc2O[C@@H]1CN(C)Cc1ccccc1 | -3 | 9[16.7 µM]
C[C@H](CO)N1C[C@H](C)[C@@H](CN(C)C(=O)Nc2ccc(C(F)(F)F)cc2)Oc2ccc(NC(=O)Cc3cn(C)c4ccccc34)cc2CC1=O | -3 | 16[16.7 µM]
COc1ccc(S(=O)(=O)N(C)C[C@H]2Oc3ccc(NC(=O)C4CCCCC4)cc3C(=O)N([C@@H](C)CO)C[C@H]2C)cc1 | 15 | -13[16.7 µM]
CC(C)NC(=O)N(C)C[C@@H]1Oc2ccc(NC(=O)CCCN(C)C)cc2CC(=O)N([C@H](C)CO)C[C@@H]1C | -3 | 4[16.7 µM]
Cc1noc(C)c1NC(=O)Nc1ccc2c(c1)C(=O)N([C@H](C)CO)C[C@H](C)[C@@H](CN(C)S(=O)(=O)c1c(C)noc1C)OCCCC[C@@H](C)O2 | 15 | 22[16.7 µM]
CNC[C@H]1Oc2ccc(NC(=O)C3CCCCC3)cc2CC(=O)N([C@H](C)CO)C[C@H]1C | -8 | -6[16.7 µM]
Cc1noc(C)c1NC(=O)N(C)C[C@@H]1Oc2ccc(N(C)C)cc2CC(=O)N([C@@H](C)CO)C[C@H]1C | 2 | 14[16.7 µM]
C[C@H](CO)N1C[C@H](C)[C@@H](CN(C)S(=O)(=O)c2cccs2)Oc2c(NS(=O)(=O)c3ccc(Cl)cc3)cccc2C1=O | -4 | -36[16.7 µM]
COCC#Cc1cnc2c(c1)C(=O)N([C@@H](C)CO)C[C@@H](C)[C@@H](CN(C)Cc1ccccc1)O2 | -1 | 18[16.7 µM]
CCNC(=O)C[C@H]1CC[C@H]2[C@H](COc3ccc(NS(=O)(=O)c4ccccc4C)cc3C(=O)N2C)O1 | 4 | 0[16.7 µM]
C[C@@H]1CCCCO[C@H](CN(C)C(=O)Nc2ccc(C(F)(F)F)cc2)[C@@H](C)CN([C@@H](C)CO)C(=O)c2cc(NS(=O)(=O)c3ccc(F)cc3)ccc2O1 | -14 | 7[16.7 µM]
COc1ccccc1CNC(=O)C[C@@H]1C[C@H]2c3cc(NC(=O)C4CCC4)ccc3O[C@H]2[C@H](CO)O1 | 2 | 15[16.7 µM]
C[C@@H]1CCCCO[C@@H](CN(C)Cc2ccc3c(c2)OCO3)[C@H](C)CN([C@@H](C)CO)C(=O)c2cc(NS(=O)(=O)c3cn(C)cn3)ccc2O1 | 8 | -4[16.7 µM]
C[C@@H]1CCCCO[C@@H](CN(C)CC2CCCCC2)[C@@H](C)CN([C@H](C)CO)C(=O)c2cc(NC(=O)c3ccccc3)ccc2O1 | 6 | 0[16.7 µM]
COCCOC(=O)N1C(=O)[C@@]2(c3ccccc31)[C@H](c1ccccc1OCCO)N1[C@H](c3ccccc3)[C@H](c3ccccc3)OC(=O)[C@H]1[C@@H]2C(=O)NC[C@H](O)c1ccccc1 | 0 | -202[16.7 µM]
C[C@@H]1CN([C@@H](C)CO)C(=O)c2cc(NS(=O)(=O)c3cccs3)ccc2O[C@@H](C)CCCCO[C@@H]1CN(C)C(=O)Nc1cccc2ccccc12 | -11 | 12[16.7 µM]
C[C@@H]1CN([C@@H](C)CO)C(=O)c2cc(NC(=O)CCC(F)(F)F)ccc2O[C@@H](C)CCCCO[C@@H]1CN(C)C(=O)Nc1ccc2c(c1)OCO2 | 5 | 18[16.7 µM]
O=C(C[C@@H]1C=C[C@@H](NC(=O)c2ccc3c(c2)OCO3)[C@H](CO)O1)NCc1ccc(Cl)cc1 | -13 | -7[16.7 µM]
COc1ccccc1-c1ccc2c(c1)O[C@@H](CN(C)C(=O)c1ccncc1)[C@@H](C)CN([C@H](C)CO)S2(=O)=O | -6 | 4[16.7 µM]
CN(C)C(=O)c1ccc(-c2ccc([C@H]3[C@H](C#N)N(C(=O)C4CC4)[C@H]3CO)cc2)cc1 | 2 | -2[16.7 µM]
C[C@H]1CN([C@@H](C)CO)S(=O)(=O)c2ccc(C#Cc3ccccc3F)cc2O[C@H]1CN(C)C(=O)c1ccc2c(c1)OCO2 | 4 | 43[16.7 µM]
CC(=O)Nc1ccc2c(c1)C(=O)N(C)[C@H]1CC[C@H](CC(=O)NCC3CC3)O[C@H]1CO2 | -7 | -22[16.7 µM]
C[C@@H]1CCCCO[C@H](CN(C)S(=O)(=O)c2cccs2)[C@@H](C)CN([C@H](C)CO)C(=O)c2cc(NC(=O)Cc3ccccc3)ccc2O1 | 14 | -19[16.7 µM]
O=C(Nc1ccc(Cl)cc1)N[C@@H]1CC[C@H](CCNC(=O)c2ccccc2F)O[C@@H]1CO | 12 | -7[16.7 µM]
C[C@@H]1CCCCO[C@H](CN(C)C(=O)Nc2ccc(C(F)(F)F)cc2)[C@@H](C)CN([C@@H](C)CO)C(=O)c2cc(NC(=O)Nc3ccccc3)ccc2O1 | -13 | 20[16.7 µM]
Cc1cc(C)cc(NC(=O)Nc2ccc3c(c2)C(=O)N(C)[C@H]2CC[C@H](CC(=O)O)O[C@@H]2CO3)c1 | 5 | -3[16.7 µM]
COc1ccc(NC(=O)N(C)C[C@@H]2OCCCC[C@@H](C)Oc3ccc(NC(=O)c4ccccc4)cc3C(=O)N([C@H](C)CO)C[C@@H]2C)cc1 | 6 | -6[16.7 µM]
C[C@@H]1CN([C@H](C)CO)C(=O)c2cccc(NS(=O)(=O)c3ccc(Cl)cc3)c2O[C@H]1CN(C)Cc1ccccc1 | 1 | 3[16.7 µM]
C[C@@H]1CN([C@H](C)CO)C(=O)c2cc(NC(=O)Nc3ccc(F)cc3)ccc2O[C@@H](C)CCCCO[C@H]1CN(C)S(C)(=O)=O | 18 | -4[16.7 µM]
COCC#Cc1ccc2c(c1)O[C@H](CN(C)C(C)=O)[C@H](C)CN([C@H](C)CO)S2(=O)=O | -8 | -14[16.7 µM]
CN(C)CC(=O)Nc1ccc2c(c1)[C@@H]1C[C@@H](CC(=O)NCCc3ccccc3)O[C@@H](CO)[C@@H]1O2 | 15 | -24[16.7 µM]
C[C@H]1CCCCO[C@H](CN(C)Cc2ccc(Cl)c(Cl)c2)[C@@H](C)CN([C@@H](C)CO)C(=O)c2cc(NC(=O)Nc3ccc(F)cc3)ccc2O1 | -8 | 72*[16.7 µM]
COc1ccc(CN(C)C[C@H]2OCCCC[C@H](C)Oc3ccc(NS(=O)(=O)c4ccccc4)cc3C(=O)N([C@@H](C)CO)C[C@@H]2C)cc1 | 12 | 6[16.7 µM]
CO[C@H]1CN(C)C(=O)c2ccc(NC(=O)Nc3ccccc3)cc2OC[C@@H](C)N(C(C)=O)C[C@H]1C | 5 | 1[16.7 µM]
CC(C)NC(=O)N(C)C[C@@H]1Oc2ncc(-c3ccccc3F)cc2C(=O)N([C@@H](C)CO)C[C@H]1C | -1 | 3[16.7 µM]
Cc1noc(C)c1S(=O)(=O)N(C)C[C@@H]1OCCCC[C@@H](C)Oc2ccc(NC(=O)NC3CCCCC3)cc2C(=O)N([C@H](C)CO)C[C@@H]1C | -1 | 0[16.7 µM]
C[C@H](CO)N1C[C@H](C)[C@H](CN(C)C(=O)c2ccncc2)Oc2ncc(/C=C/c3ccccc3)cc2C1=O | 1 | -1[16.7 µM]
C[C@@H]1CN([C@H](C)CO)C(=O)Cc2cc(NS(=O)(=O)c3cccs3)ccc2O[C@@H]1CN(C)S(=O)(=O)c1ccccc1 | -4 | -21[16.7 µM]
COc1ccc(CN2C[C@@H](C)[C@H](OC)CN(C)C(=O)c3ccc(NC(=O)c4nc5ccccc5s4)cc3OC[C@H]2C)cc1 | 8 | 17[16.7 µM]
O=C(C[C@@H]1C[C@H]2c3cc(NS(=O)(=O)c4ccc(F)cc4)ccc3O[C@H]2[C@H](CO)O1)NCC1CC1 | 0 | 4[16.7 µM]
COc1ccc(S(=O)(=O)N[C@H]2CC[C@H](CC(=O)N3CCc4ccccc4C3)O[C@H]2CO)cc1 | 9 | -3[16.7 µM]
O=C(Cc1cccnc1)N[C@H]1CC[C@@H](CCn2cc(-c3ccccc3F)nn2)O[C@H]1CO | -16 | -4[16.7 µM]
C[C@@H]1CN([C@H](C)CO)C(=O)c2cc(C3=CCCCC3)cnc2O[C@H]1CN(C)C(=O)NC1CCCC1 | 2 | -9[16.7 µM]
Cc1ccccc1-c1ccc2c(c1)O[C@H](CN(C)C(=O)Nc1ccc(C(F)(F)F)cc1)[C@@H](C)CN([C@@H](C)CO)S2(=O)=O | 2 | 23[16.7 µM]

Screening data deposited in PubChem BioAssay by Broad Institute.
